# Screens deposited in PubChem by National Center for Advancing Translational Sciences (NCATS).
# miR-21 reporter – miR-21 reporter, rising signal | HeLa miR-21 FLuc reporter, luciferase, 48 h | Potency, µM (highest dose often 38.3 µM), without a hit: at the highest dose reporter change, positive = more light | 340,000 tested, under 10 active | AID 2288; active = well fitted rising curve with a large enough effect; inconclusive = small, poorly fitted or top-dose-only effect; inactive = no such curve, though single readings can be large or run the other way;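 further: % of control where 0% means no effect; miR-21 action dims this reporter so a rising signal means less miR-21 action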
#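 Luminescence from a firefly luciferase reporter carrying a miR-21 binding site downstream, stably expressed under a CMV promoter in HeLa cells that make miR-21 endogenously, reports miRNA modulation after 48 h compound exposure up to approximately 40uM final.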
# GLA inh pH 4.5 – blocks human alpha-galactosidase A at pH 4.5; P06280; purified enzyme, 4-MU-alpha-Gal fluorescence, pH 4.5; activity change, negative = inhibition, % at 105 µM; 230,000 tested, under 10 active; AID 1467; inconclusive = small, poorly fitted or top-dose-only inhibition, or a rising curve; inactive = flat fitted curve, though single readings scatter; no compound was filed as active;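 further: 0% = full activity with enzyme and -100% = basal without enzyme; dose as in the result columns while the protocol names 77 µM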
# Target sequence (P06280 whole entry, looked up): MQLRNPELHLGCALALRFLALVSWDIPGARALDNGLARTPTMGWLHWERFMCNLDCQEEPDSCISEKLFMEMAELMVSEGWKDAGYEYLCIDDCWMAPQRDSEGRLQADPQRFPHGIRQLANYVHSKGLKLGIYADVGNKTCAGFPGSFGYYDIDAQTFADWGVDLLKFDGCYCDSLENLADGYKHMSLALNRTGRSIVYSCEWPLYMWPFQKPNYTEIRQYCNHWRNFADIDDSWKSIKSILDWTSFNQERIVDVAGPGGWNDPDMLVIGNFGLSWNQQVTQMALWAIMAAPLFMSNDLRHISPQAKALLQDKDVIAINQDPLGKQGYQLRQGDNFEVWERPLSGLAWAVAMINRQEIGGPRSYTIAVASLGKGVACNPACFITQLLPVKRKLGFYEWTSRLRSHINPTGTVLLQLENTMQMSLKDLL
# Rango complex inh – inhibitors of Rango-importin beta complex formation; Q14974; Rango CFP/YFP FRET sensor + importin beta, 45 min; Potency, µM (series often up to 92.2 µM), inactives show top-dose inhibition of complex formation; 340,000 tested, 0.031% active; AID 540263; active = rising FRET ratio curve, often small or poorly fitted; inconclusive = mostly compound fluorescence or quenching in the first reads; inactive = flat curves in all reads;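 further: potency means the concentration at half of the fitted maximal effect; 0% = DMSO wells and 100% = buffer wells lacking importin beta; nearly all actives have a fitted effect of over 15% in size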
#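 FRET biosensor Rango (snurportin 1 IBB between N-terminal EYFP and C-terminal Cerulean), 50 nM in PBS/1 mM DTT/0.02% Tween-20/0.1% BSA, preincubated 5 min RT with compound; 0.125 microM importin beta added, 45 min RT, CFP/YFP FRET ratio read.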
# Rango release inh – prevents RanGTP from dissociating the Rango-importin beta complex; O95149+P62826; Potency, µM (top dose mostly 46.1 µM), without a hit: top-dose activity change, negative = inhibition; AID 540253; 340,000 tested, 0.071% active; Biochemical FRET Rango-importin beta, RanGTP-induced dissociation; active means falling FRET ratio curve, often poorly fitted, with flat reads before Ran was added; inconclusive means other falling curves, or compound fluorescence or quenching; inactive means flat or rising ratio curve;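 further: potency means the concentration at half of the fitted maximal effect; % of control where 0% means no effect; nearly all actives have a fitted effect of over 45% in size; -100% = wells without RanGTP and RCC1; the record marks most hits as doubtful in a second field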
#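 Rango FRET biosensor (snurportin-1 IBB flanked by N-terminal EYFP and C-terminal CFP10) at 0.1 uM, with 0.25 uM importin beta in PBS, 1mM DTT, 0.02% Tween-20, 0.1% BSA. 0.6 uM Ran, 2mM GTP and 0.2 uM RCC1 were then added for 45 min at room temperature. Inhibition read as loss of FRET rise.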
# An asterisk follows results filed as active; ? = inconclusive; / = no result given; [ ] = dose if it differs, or a comment.
miR-21 reporter | GLA inh pH 4.5 | Rango complex inh | Rango release inh | mol
-9% | 16 | -0.9% | -5% | Cc1cc(C(=O)N/N=C/c2ccc(-c3cccc(Cl)c3)o2)n[nH]1
/ | / | -0.7% | 1% | COc1cccc(OCCNS(=O)(=O)c2ccccc2[N+](=O)[O-])c1
-49% | 3 | ? | -12% | CCOc1ccc2cc(C#N)c(SCC(=O)OC)nc2c1
3% | -3 | ? | -15% | Oc1cccc2c(NC(=S)Nc3ccc(OC(F)F)cc3)cccc12
/ | / | 1.7% | -5% | COc1ccc(CC(=O)Nc2cccc(S(=O)(=O)N3CCOCC3)c2)cc1OC
-26% | -6 | -2.7% | 4% | CC(C)Nc1nc(NC(C)C)nc(OCCOC(=O)Nc2ccccc2)n1
-65% | / | -1.1% | 14% | COc1ccc(C(=O)Nc2ccc(N3CCCC3)cc2)cc1OC
-7% | 1 | ? | 6% | Cc1ccc(C(C(=O)NC2CCCCC2)N(C(=O)Cc2c[nH]c3ccccc23)c2ccccc2C)o1 (centres undefined)
-7% | / | 2.0% | -25% | COc1ccc(-c2csc(N(CCCN3CCOCC3)C(=O)CCl)n2)cc1
8% | -6 | 3.3% | 4% | COc1cccc(/C=N/NC(=O)c2c(C)nc3ccc(Br)cn23)c1
? | -3 | 6.6% | -3% | CN(C)c1nc(=NCc2ccco2)ss1
-12% | -3 | -0.7% | -1% | O=C1c2ccccc2C(O)N1CCN1CCOCC1 (centres undefined)
-10% | / | ? | ? | Cc1cc(/C=C2\C(=N)N3N=C(CC(=O)N4CCOCC4)SC3=NC2=O)c(C)n1-c1ccccc1
-39% | 4 | ? | 11% | COCc1cccc(NC(=O)CCc2ccccc2)c1
-18% | / | 3.0% | ? | COc1cccc(/C=C/c2ccc3cccc(O)c3n2)c1OC
-1% | / | 2.4% | -7% | Cc1cccc(C)c1-n1ncc(C(=O)NC2CCCC2)c1C1CCNCC1
4% | 11 | -1.7% | -3% | Cc1ccc(CS(=O)(=O)Cc2ccc(C(=O)NCc3cccs3)o2)cc1
-31% | -7 | 4.6% | 15% | O=C(Nc1ccc(C(F)(F)F)cc1)c1ccc2nc[nH]c2c1
3% | / | -2.3% | -3% | CCCC(C(=O)NCc1ccco1)N(Cc1ccco1)C(=O)CNS(=O)(=O)c1ccccc1 (centres undefined)
9% | / | 2.8% | 11% | O=S(=O)(c1cnc[nH]1)N1CCN(C(c2ccc(F)cc2)c2ccc(F)cc2)CC1
-1% | 1 | 6.0% | -9% | CC(C)[C@H]1C=C(C(=O)O)O[C@@H](OCCCCO)C1
-2% | / | -1.7% | -6% | COc1ccc(F)cc1S(=O)(=O)n1nc(C)cc1C
-4% | -1 | -0.7% | 2% | COc1cc(/C=C/C(=O)OCC(=O)NC(=O)NCc2ccccc2)ccc1OCC#N
-4% | / | -0.1% | 11% | Cc1cc(OC(=O)c2cc(C(F)(F)F)cc(C(F)(F)F)c2)c([N+](=O)[O-])c(=O)[nH]1
0% | 3[21.1 µM] | -2.9% | 2% | COCC(C)Nc1nc(C)c(C(C)=O)s1 (centres undefined)
2% | 4 | ? | ? | COc1ccccc1Nc1nc2c(C)cccc2cc1C#N
4% | -7 | 0.5% | 1% | COc1ccc(N2CC(C)Cn3c2nc2c3c(=O)n(Cc3ccc(C)cc3)c(=O)n2C)c(OC)c1 (centres undefined)
2% | -20 | 2.1% | 1% | Cc1cccc(C)c1NC(=O)CSCC(=O)O
-4% | -4 | 4.1% | -5% | CCCCOC(=O)C1CCCC(C)N1 (centres undefined)
-1% | -7 | 0.5% | -24% | O=C(Nc1cc(C(F)(F)F)ccc1N1CCOCC1)c1cccnc1
-37% | -5 | 1.4% | 15% | O=C(NNC(=O)c1ccc(F)cc1F)c1ccc2c(c1)OCO2
/ | / | 3.4% | -17% | COc1ccccc1C(=O)COC(=O)CCN=C1NS(=O)(=O)c2ccccc21
-16% | / | 0.6% | 8% | Cc1ccc(C(=O)O/N=C(\N)Cc2cccs2)c(Cl)c1
-3% | -12 | -1.7% | 5% | CCc1nc(N2CCN(C(C)=O)CC2)c(C#N)c2c1COC(C)(C)C2
-1% | 4 | 0.6% | 4% | C[C@@H]1CC[C@]2(O[C@@H](CCO)C[C@@H](O)[C@@H]2O)O1
4% | -2 | -0.8% | 7% | COC(=O)c1cc(C#N)c(OC(C)C)nc1C
1% | / | -7.3% | -5% | C[C@H](NC(=O)c1nc[nH]c1C(=O)N1CCN(c2ccccc2)CC1)C(=O)OCc1ccccc1
-18% | / | 3.4% | 8% | CCc1cc(=O)oc2c3c(cc(OCC(=O)N[C@H](C(=O)O)[C@H](C)CC)c12)OC(C)(C)CC3
/ | / | -5.0% | 6% | C[C@]12c3[nH]c4ccc(Cl)cc4c3CCN1C(=O)[C@@H](CC(=O)NCCC1=CCCCC1)C[C@@H]2C(=O)N1CCOCC1
0% | -2 | 4.2% | 2% | CCN(Cc1ccncc1)C(=O)C1CCN(S(=O)(=O)c2cccs2)CC1
0% | / | -2.1% | 0% | COc1cccc(OC)c1NC(=O)Cn1nc(C)c2ccccc2c1=O
-7% | 2 | 1.7% | 25% | C(=N/Nc1nccs1)/c1cccnc1
-14% | 4 | ? | ? | CN1CCN(c2ccc(NC(=O)COc3ccccc3[N+](=O)[O-])cc2)CC1
-2% | -15 | 2.9% | -7% | COc1ccc(C2=NOC(C(=O)NCCN3CCOCC3)C2)cc1 (centres undefined)
1% | 0 | ? | -7% | O=c1c2c3nc4ccccc4nc3n(/N=C/c3ccco3)c2ncn1CCC1=CCCCC1
/ | / | 1.0% | -6% | CCOc1ccc(OCC(=O)Nc2cccc(S(=O)(=O)NC3=NCCC3)c2)cc1
/ | / | -0.9% | -21% | CC1Nc2ncnc(N3CCc4ccccc4C3)c2N(Cc2ccc(Cl)cc2)C1=O (centres undefined)
/ | / | -3.8% | 18% | CCCCN1CC(=O)N2[C@H]3c4cc(C)ccc4OC[C@@H]3[C@H](c3ccccc3)[C@]2(C)C1=O
-5% | -1 | 1.5% | 9% | Cc1cccc(NS(=O)(=O)c2cc(OCC(N)=O)c(C)cc2Cl)c1
-6% | / | 1.1% | -9% | CCC(c1nnnn1Cc1ccc(OC)cc1)N1CCN(C(=O)c2ccco2)CC1 (centres undefined)
-2% | 0 | -0.8% | -3% | COc1ccc(CCC(=O)N2CCCSC2=Nc2ccc(C(C)=O)cc2)cc1
/ | / | 3.8% | 7% | CCOc1ccccc1NC(=O)c1cccnc1
-6% | 5 | 2.9% | 25% | CC1CCCN(CCCCOc2cccc(Br)c2)C1 (centres undefined)
-9% | 1 | / | / | O=C(NC1CCCCC1)NC1CC2CCC(C1)N2C(=O)NC1CCCCC1 (centres undefined)
-1% | -10 | 1.8% | 1% | CCOc1cc(/C=N/n2cnnc2)ccc1OCC(=O)Nc1ccccc1OC
0% | -5 | -0.2% | -4% | CC1CCC(NC(=O)C2CCC(CNc3c(N4CCCCC4)c(=O)c3=O)CC2)CC1 (centres undefined)
0% | -11 | 0.0% | 1% | O=C(Nc1cc(=O)[nH]c2nc(-c3ccccc3)nn12)c1ccc(Cl)cc1
14% | 8 | -2.0% | 7% | Nc1ccccc1Nc1ccncc1[N+](=O)[O-]
1% | 2 | 0.2% | 7% | CCn1c(COc2ccc3c(c2)CCCC3)nnc1SCC(=O)Nc1ccc(C(=O)OC)cc1
-5% | -3 | -1.7% | -6% | CCc1ccc(NC(=O)CSc2nc3ccccc3c(=O)n2CCN2CCOCC2)cc1

# (further entries)
miR-21 reporter | GLA inh pH 4.5 | Rango complex inh | Rango release inh | mol
-41% | -5 | -0.1% | 3% | CC(=O)Oc1ccc(C)cc1-n1nc2ccccc2n1
/ | / | -0.2% | 0% | Cc1onc(-c2ccccc2Cl)c1C(=O)NCc1nnnn1-c1ccc(F)cc1
3% | / | 0.1% | 2% | CCN(CC(=O)Nc1c(F)cccc1F)C(=O)C1(c2ccccc2)CC1
-6% | / | -1.0% | 3% | O=c1[nH]c2ccccc2nc1Cc1ccc([N+](=O)[O-])cc1
-1% | 4 | 0.1% | 13% | CC[N+]1(CC(O)COC2CC(C)CC(C)(C)C2)CCOCC1 (centres undefined)
-8% | -1 | 0.0% | 39% | CCN(c1ccccc1)S(=O)(=O)c1ccc(Cl)c(NC(=O)CSc2nncn2C)c1
-14% | 2 | 2.5% | 33% | Cc1ccsc1/C=N/n1cnnc1
1% | -24 | 1.1% | -5% | CCOc1ccc(NC(=O)Nc2cc(-c3ccccc3)sc2C(=O)OC)cc1
-1% | 4 | 0.4% | 2% | CCc1ccc(N2C(=O)c3sc4nnc(C)c(=O)n4c3C2=O)cc1
-3% | / | 2.7% | 13% | O=S(=O)(Nc1ccccc1C(F)(F)F)c1ccc(-c2ccccn2)s1
2% | / | 2.6% | 42% | COc1cccc(CN2CCN(Cc3cc(OC)c(OC)c(OC)c3)CC2)c1OC
2% | 4 | 0.6% | -5% | COc1ccccc1N(Cc1ccccc1)S(=O)(=O)c1cc(C(=O)O)ccc1Cl
-4% | -2 | ? | 1% | CC12CCC(C(=O)N(c3cccc(Cl)c3)C1=O)C2(C)C (centres undefined)
-12% | 3 | -0.8% | -6% | O=C(OCc1ccc(F)cc1)c1ccc2c(c1)-c1ccccc1C2=O
/ | / | -2.3% | 4% | O=C(C=Cc1ccco1)c1ccc2ccccc2c1
/ | / | -3.2% | -13% | COc1cccc(NC(=O)CN2C(=O)NC(C)(C3CC3)C2=O)c1 (centres undefined)
-11% | -12 | -0.7% | 7% | CC(C)(C)OC(=O)Cn1c(=O)cnc2ccccc21
24% | 0 | 0.1% | 9% | CCCn1c(N)c(C(=O)NS(=O)(=O)c2ccc(C)cc2)c(=O)n(C)c1=O
-17% | / | -0.1% | -13% | O=C(Nc1ccccc1N1CCCC1)c1ccc2ccccc2c1
/ | / | 3.4% | -10% | CN(C)S(=O)(=O)c1ccc(C(=O)NCC(c2cccs2)N2CCOCC2)cc1 (centres undefined)
-1% | -9 | 0.1% | -1% | Cc1ccc(NC(=O)N(Cc2cc3cc(C)cc(C)c3[nH]c2=O)CC2COCCO2)cc1 (centres undefined)
/ | / | -0.6% | -13% | O=C(NCC(c1ccco1)N1CCN(c2ccc(F)cc2)CC1)C(=O)NC1CCCCC1 (centres undefined)
0% | -4 | -4.9% | 0% | NS(=O)(=O)c1ccc(NC(=O)C(Sc2ccccc2)c2ccccc2)cc1 (centres undefined)
-11% | -14 | -0.3% | 31% | Cc1cc(C)n2nc(-c3sccc3-n3cccc3)cc2n1

# Single records, as listed above. Screens in order: miR-21 reporter	GLA inh pH 4.5	Rango complex inh	Rango release inh
# O=C(OCc1ccc(F)cc1)c1ccc2c(c1)-c1ccccc1C2=O reads -12%	3	-0.8%	-6%
# Cc1cc(C)n2nc(-c3sccc3-n3cccc3)cc2n1 reads -11%	-14	-0.3%	31%
# Cc1ccc(NC(=O)N(Cc2cc3cc(C)cc(C)c3[nH]c2=O)CC2COCCO2)cc1 (centres undefined) reads -1%	-9	0.1%	-1%

# Additional records
miR-21 reporter | GLA inh pH 4.5 | Rango complex inh | Rango release inh | mol
29% | 0 | -3.1% | 0% | COc1ccc(-n2c(-c3ccc(Cl)cc3)c[n+]3c2CCc2ccccc2-3)cc1
-43% | / | 4.9% | 12% | O=C(CN1Cc2ccccc2C1=O)Nc1ccc2c(c1)OCCO2
1% | / | -0.2% | 12% | CC(=O)N[C@@H]1[C@@H](O)[C@@H]2OC(c3ccccc3)OC[C@H]2O[C@@H]1N=[N+]=[N-] (some centres undefined)
-1% | / | 1.1% | -11% | O=C(NC1CC2CCC(C1)N2Cc1ccccc1)c1ccccc1Cl (centres undefined)
/ | / | -0.1% | 18% | CCN1C(=O)[C@H]2[C@@H](c3ccc(C)cc3)N3C(=O)N(c4cccc(Cl)c4)C(=O)[C@@]3(Cc3ccc(Cl)cc3)[C@H]2C1=O
-2% | -4 | -1.8% | -5% | Cc1ccc(C(=O)NCC(=O)O)o1
-9% | -1 | 0.7% | -3% | CCn1c(COc2ccccc2C(N)=O)nc2ccccc21
-25% | 12 | 0.1% | 37% | Clc1ccc(Cn2ccc(C3CC3)n2)cc1
0% | -3 | 3.7% | -5% | Cc1cc(C)c2[nH]c(=O)c(C(c3nnnn3Cc3ccc4c(c3)OCO4)N3CCCC3)cc2c1 (centres undefined)

# This is a subset; count on the stated rates, not on these rows.
